2A StopGo – High Throughput Screening for Foot and Mouth Disease Virus Antivirals | hit rate 1.2% among 410,000 | human cells with a luciferase reporter of 2A StopGo recoding; control for the full effect not named in the record | Potency, µM (series often up to 57.9 µM), for the others: top-dose signal change, negative = less light | AID 1159524, 2015; active = well fitted falling curve with a large enough effect; inconclusive = small, poorly fitted or top-dose-only effect; inactive = no such curve, though single readings can be large or run the other way; tested in HEK293T cells; note: % is set by controls: 0 for no effect and ±100 for the full control effect; nearly all actives have a fitted effect of over 45% in size; luciferase light after 4 h
MARV entry inh – qHTS for inhibitors of binding or entry into cells for Marburg Virus; Marburg virus pseudotyped entry inhibition, cell reporter; control for the full effect not named in the record; about a third of the inactives were read at about 46 µM; Potency, µM (titrated, usually from 37.8 µM), inactives show at the highest dose activity change, negative = inhibition, actives largely listed as inhibitors; hit rate 1.8% among 300,000; AID 540276, 2011; active = well fitted inhibition curve with a large enough effect; inconclusive = small, poorly fitted or top-dose-only effect, or effect the other way; inactive = flat fitted curve, though single readings scatter; tested in HEK293 cells; about a fifth of its hits are not listed in these tables; note: % is set by controls: 0 for no effect and ±100 for the full control effect; luciferase read-out
Cruzain noTriton – qHTS Assay for Promiscuous and Specific Inhibitors of Cruzain (without detergent); Cruzipain (Trypanosoma cruzi), P25779; purified cruzain, Z-FR-AMC fluorescence, no detergent; Potency, µM, for inactives: max response, negative = inhibition, most hits filed as inhibitors; hit rate 2.3% among 200,000; active = well fitted curve in the direction sought with a large enough effect; inconclusive = small, poorly fitted or top-dose-only effect, or another doubt; inactive = no such curve, though single readings can be large; an effect the other way counts as inactive or inconclusive;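 note: plate controls were enzyme without inhibitor for no effect and buffer without enzyme for full effect; nearly all actives have a fitted effect of over 40% in size; top concentration of the series not given in the record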
Target sequence (P25779 123-467 limits assumed): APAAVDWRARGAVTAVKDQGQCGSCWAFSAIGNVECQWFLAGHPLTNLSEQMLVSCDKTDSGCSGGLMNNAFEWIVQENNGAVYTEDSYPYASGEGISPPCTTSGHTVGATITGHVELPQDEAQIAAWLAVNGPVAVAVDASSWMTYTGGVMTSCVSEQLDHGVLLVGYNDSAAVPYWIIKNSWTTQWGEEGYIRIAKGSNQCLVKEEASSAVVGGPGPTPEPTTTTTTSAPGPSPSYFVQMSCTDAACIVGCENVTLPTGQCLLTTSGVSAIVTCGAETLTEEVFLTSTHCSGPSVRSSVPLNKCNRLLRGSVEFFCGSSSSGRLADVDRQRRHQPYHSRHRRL
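Purified cruzain at 1.5 nM, pre-incubated 15 min with compound at room temperature in 100 mM sodium acetate pH 5.5, 5 mM DTT, 0.00005% Triton X-100. Reaction started with 2 uM Z-FR-AMC; AMC fluorescence increase over 60 s gives rate.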
Cruzain Triton – qHTS Assay for Promiscuous and Specific Inhibitors of Cruzain (with detergent) | Cruzipain (Trypanosoma cruzi), P25779 | purified cruzain, Z-FR-AMC fluorescence, 0.01% Triton | Potency, µM, for inactives: max response, negative = inhibition, hits mostly inhibitors | hit rate 0.43% among 200,000 | AID 1478, 2009; active = well fitted curve in the direction sought with a large enough effect; inconclusive = small, poorly fitted or top-dose-only effect, or another doubt; inactive = no such curve, though single readings can be large; an effect the other way counts as inactive or inconclusive;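 note: plate controls were neutral wells for no effect and buffer without enzyme for full effect; nearly all actives have a fitted effect of over 40% in size; top concentration of the series not given in the record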
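Cysteine protease activity tested under reducing, mildly acidic conditions (100 mM sodium acetate pH 5.5, 5 mM DTT) plus 0.01% Triton X-100. Cruzain 1.5 nM; substrate Z-FR-AMC 2 uM; 15 min compound preincubation at room temperature.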
RE007 growth inh – qHTS Assay for Inhibitors of the HIV-1 protein Vpr | S. pombe RE007 Vpr strain, BacTiter-Glo ATP luminescence, 24 h; control for the full effect not named in the record | Potency, µM (titrated, usually from 92.2 µM), inactives show at the top dose activity change, negative = less growth | hit rate 0.21% among 360,000 | AID 651644, 2012; active = well fitted falling curve with a large enough effect; inconclusive = small, poorly fitted or top-dose-only effect; inactive = no such curve, though single readings can be large or run the other way;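 note: % is set by controls: 0 for no effect and ±100 for the full control effect; nearly all actives have a fitted effect of over 50% in size; the assay follows cell death caused by Vpr and the record does not say whether a fall means rescue or toxicity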
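Fission yeast RE007 carrying one integrated HIV-1 vpr copy, seeded at OD 0.01 in PMG+AL medium with 23 nL pinned compound. Grown 24 h at 30 degrees; viability read by BacTiter-Glo luminescence after 5 min.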
NS1 inh – qHTS Assay for Inhibitors of Influenza NS1 Protein Function; S. cerevisiae slowed by influenza A NS1, growth recovery by OD600; Potency, µM (top dose mostly 46.1 µM), inactives show at the highest dose activity, positive = more growth; hit rate 0.4% among 270,000; note: actives are rising curves; nearly all actives have a fitted effect of over 50% in size
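In this qHTS, NS1 from influenza A is expressed in budding yeast, where it slows growth. Cells are switched from glucose to 2% galactose medium (pH 6.0, -URA), treated with compound, and growth recovery is read at OD600.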
Lassa entry inh – qHTS for Inhibitors of binding or entry into cells for Lassa Virus. Lassa virus pseudotype entry inhibition, cell reporter; control for the full effect not named in the record. Potency, µM (doses to about 37.9 µM), for the others: top-dose activity change, negative = inhibition, usual class: inhibitors. hit rate 1.2% among 300,000. AID 540256, 2011; active means well fitted inhibition curve with a large enough effect; inconclusive means small, poorly fitted or top-dose-only effect, or effect the other way; inactive means flat fitted curve, though single readings scatter; tested in HEK293 cells; note: % is set by controls: 0 for no effect and ±100 for the full control effect; nearly all actives have a fitted effect of over 50% in size; luciferase read-out
SARS PLP yeast – qHTS of Yeast-based Assay for SARS-CoV PLP | hit rate 0.19% among 330,000 | Potency, µM (series often up to 32.9 µM), for the others: top-dose activity, positive = growth rescue | AID 485353, 2010 | S. cerevisiae expressing SARS-CoV PLpro, growth rescue; control for the full effect not named in the record; note: 0% is about no effect; nearly all actives have a fitted effect of over 55% in size; growth read by luminescence after 48 h
* hit, by the source's call; u = inconclusive; x = not tested or not shown; & = joins results of further samples; [ ] = another dose, or the depositor's remark. Unless noted, calls come from the whole dose curve; as a rule, active means well fitted rising curve with a large enough effect; inconclusive means small, poorly fitted or top-dose-only effect; inactive means no such curve, though single readings can be large or run the other way. Potency is the fitted concentration of half-maximal effect. Rows are unselected (roughly 4.5% active in at least one column).

SMILES	2A StopGo	MARV entry inh	Cruzain noTriton	Cruzain Triton	RE007 growth inh	NS1 inh	Lassa entry inh	SARS PLP yeast
COC(=O)C1Cc2ccccc2CN1S(=O)(=O)c1ccc(F)cc1 (configuration not stated)	-10.2%	-13.4%	x	x	3.5%	-5.5%	-5.0%	-1.7%
O=C(COC(=O)c1ccccc1)Nc1ccccc1Br	27.4%	6.7%[46.1 µM]	x	x	6.2%	1.7%	-4.2%	-0.2%
COc1ccccc1C/C(N)=N/OC(=O)c1cccs1	-5.8%	11.2µM*	x	x	-18.8%	-55.8%	10µM*	-6.1%
CON/C=C(\C=Nc1ccc(Cl)cc1)c1ncc(C(F)(F)F)cc1Cl	14.1%	u	-4.6%	-4.6%	11.1%	-1.9%	9.1%	-4.6%
COc1cc(OC)c(C(=O)O/N=C(\N)c2cccc(C)c2)cc1OC	40.0%[activator]	-3.3%	x	x	-10.0%	-3.3%	u	-10.2%
CCCN(C(=O)c1ccc2c(=O)n3c(nc2c1)CCCCC3)c1cccc(Cl)c1	1.8%	0.6%[46.1 µM]	u	-6.6%	x	x	-25.7%[46.1 µM]	x
COc1ccc(-n2ncc3c(NCCCn4ccnc4)ncnc32)cc1	2.6%	u	-0.7%	1.9%	-13.5%	0.7%	u	3.4%
CCN(CC(=O)NC1CCS(=O)(=O)C1)S(=O)(=O)c1ccc(Cl)cc1C(F)(F)F (configuration not stated)	11.3%	7.2%	x	x	14.0%	x	-24.5%	-1.6%
COc1ccc(/C=C/C(=O)NNc2cc(=O)n(C)c(=O)n2C)cc1OC	-12.4%	x	x	x	-5.8%	5.2%	x	0.0%
COc1ccc2[nH]c3c(c2c1)CCC/C3=N\N	6.3%	u	x	x	11.0%	7.1%	u	-0.4%
Cc1cc(NC(=O)CCC(=O)N(c2ccccc2)C(C(=O)NC2CCCCC2)c2cccs2)no1 (configuration not stated)	-1.2%	u	-9.0%	-0.4%	9.2%	2.7%	-12.7%	-13.2%
COc1ccc(C(=O)c2sc(Nc3ccccc3)c(C(=O)Nc3ccc(OC)c(OC)c3)c2N)cc1	-9.4%	0.6%	-22.2%	-6.7%	-2.5%	15.6%	-23.0%	3.9%
COc1ccc(NC(=O)CS(=O)CC(=O)Nc2ccc(F)cc2F)cc1 (configuration not stated)	18.6%	0.5%[46.1 µM]	x	x	-3.4%	2.2%	8.8%[46.1 µM]	0.4%
CC(C)COC(=O)c1ccc(NC(=O)C2C3CCC(C3)C2C(=O)O)cc1 (configuration not stated)	-8.9%	-4.8%[46.1 µM]	-12.8%	-4.7%	-22.4%	-7.1%	-16.2%	-6.5%
COc1ccc(-c2nc(CS(=O)(=O)CC(=O)NCCCN3CCN(C)CC3)c(C)o2)cc1	-1.5%	-1.8%[46.1 µM]	x	x	-5.7%	5.7%	6.4%[46.1 µM]	1.5%
CC1(C)CC(=O)C2=C(C1)NCN(CCCN1CCOCC1)C2	43.6%[activator]	12.1%	-4.5%	-0.4%	-2.1%	u	-0.6%	-3.1%
O=C(NCc1ccccc1)c1onc(CSc2ccccn2)c1C(=O)NCc1ccccc1	-16.9%	x	x	x	1.3%	14.9%	x	-1.4%
COc1ccc(Br)cc1CNC(=O)CCCn1c(=O)c2cccn2c2cccnc21	4.6%	x	1.3%	-5.7%	x	x	-3.9%[46.1 µM]	x
COc1ccc(C)c(NC(=O)C2CC(=O)NC3=C2C(=O)CCC3)c1 (configuration not stated)	-9.4%	-4.6%[46.1 µM]	x	x	18.8%	x	4.3%	0.7%
Cc1ccccc1CN1C(=O)c2ccccc2Sc2ccc(C(=O)NC3CCCC3)cc21	-4.2%	x	8.1%	1.3%	x	x	-23.0%[46.1 µM]	x
O=C(COC(=O)c1cnc(Cl)c(Cl)c1)Nc1ccc(S(=O)(=O)N2CCCC2)cc1	u	8.5%	4.0%	-4.7%	2.0%	5.6%	u	u
COc1ccc(C2=NN(CC(=O)NCc3ccccc3Cl)C(=O)CC2)cc1	-6.4%	x	3.1%	-9.4%	x	x	4.5%[46.1 µM]	x
COC(=O)CCCC1=CC2=C(c3ccccc3)C(=O)C(C)(OC(=O)C3CCCC3)C(=O)C2=CN1c1ccccc1 (configuration not stated)	-3.9%	3.6%&3.6%[14.2 µM]	x	x	4.4%	0.9%	x	0.5%
CCN1C(=O)C2(c3ccccc31)c1c(oc3ccc(F)cc3c1=O)C(=O)N2CCCOC (configuration not stated)	-4.0%	14.3%[46.1 µM]	0.9%	-3.0%	x	x	0.3%[46.1 µM]	x
O=C(CNc1cccc(S(=O)(=O)N2CCOCC2)c1)Nc1ccccc1F	u	14.7%[46.1 µM]	x	x	-9.1%	9.9%	u	0.0%
CCOC(=O)C1(Cc2cccc(OC)c2)CCN(Cc2cc(OC)ccc2OC)CC1	3.5%	u	x	x	-7.6%	-1.8%	u	-0.6%
CCOc1ccccc1C1C(C#N)=C(N)SC(N)=C1C#N	0.0%	-12.6%	-8.4%	-6.1%	-8.8%	-3.2%	-18.8%	5.7%
CN(C)c1ccc(N2C(=NC(=O)COc3ccccc3)SC3CS(=O)(=O)CC32)cc1 (configuration not stated)	9.6%	x	x	x	-6.5%	6.1%	x	3.0%
O=C(NCCO)c1scc2c1OCCO2	4.8%	18.7%	-3.4%	-0.2%	3.1%	5.1%	-5.7%	3.6%
Cc1nn(C)cc1/C=N/NC(=O)C(C)(C)Oc1ccc(Cl)cc1	12.3%	7.8%	u	4.3%	8.3%	-2.0%	-7.2%	-6.1%
COC(=O)c1ccccc1S(=O)(=O)NCc1nc2nc(C)cc(C)n2n1	0.0%	x	x	x	-7.0%	4.4%	x	2.0%
Cc1nc2scc(C)n2c(=O)c1S(=O)(=O)NCc1ccc(F)cc1	0.0%	x	x	x	-4.7%	11.8%	x	-0.9%
O=C(Nc1ccccc1N1CCCC1)c1cccc(F)c1	-2.2%	-0.5%[46.1 µM]	x	x	8.7%	-18.5%	6.4%[46.1 µM]	0.8%
Nc1ncc([N+](=O)[O-])c(N2CCCCCC2)n1	-7.6%	5.4%[46.1 µM]	x	x	1.6%	-20.7%	-2.9%[46.1 µM]	-0.1%
COc1ccc(/C=C/C(=O)N(C(C)C)C(C)C)cc1Br	32.2%[activator]	-2.4%	9.7%	-4.8%	1.2%	-12.1%	2.3%	3.9%
O=C(Nc1ccc2c(c1)OCCO2)c1ccc(Cl)c([N+](=O)[O-])c1	u	u	3.3%	-6.7%	-12.7%	2.3%	-1.6%	29.6%
CCCCCn1nnc2c(=O)oc3ccccc3c21	-6.3%	x	x	x	-8.2%	-83.2%	x	-4.4%
Nc1cccc(-c2cnc3ccccc3n2)c1	21.4%	x	x	x	-28.6%	3.3%	x	-0.6%
COc1ccc2cc3c(N)nn(C(=O)c4ccccc4[N+](=O)[O-])c3nc2c1	-11.9%	u	-8.1%	-1.2%	-19.3%	-1.0%	u	4.6%
COc1ccccc1C1(O)CCN(CC(=O)Nc2nc(-c3ccccc3)cs2)CC1	25.1µM*	u	x	x	26.6%	-12.8%	5.62µM*	2.1%
CN(C)S(=O)(=O)c1ccc(C(=O)NCC(C)(C)CN=C2NS(=O)(=O)c3ccccc32)cc1	16.4%	u	x	x	-6.0%	4.8%	14.8%[46.1 µM]	6.4%
CCOc1ccccc1NC(=O)CN(C)S(=O)(=O)c1ccc2nc(C)sc2c1	-22.9%	-14.3%[46.1 µM]	u	-6.2%	x	x	20.8%[46.1 µM]	x
Cc1nc2nc(SCC(=O)NCc3ccccc3)nn2c(C)c1Cc1ccccc1	1.9%	x	-10.1%	0.9%	x	x	-2.5%[46.1 µM]	x
COC(c1ccc(Cl)cc1)(c1ccc(Cl)cc1)C(Oc1nccc(C)n1)C(=O)O (configuration not stated)	-23.3%	x	x	x	2.4%	u	x	1.3%
COc1ccc(N2CCN(C(CNS(=O)(=O)c3ccc4c(c3)OCCO4)c3ccco3)CC2)cc1 (configuration not stated)	-23.3%	u	-14.6%	0.3%	3.9%	u	u	0.6%
CCOP(=O)(OCC)/C(=N/OC(=O)c1cccc([N+](=O)[O-])c1)C(N)=O	5.7%	13.8%[46.1 µM]	x	x	2.9%	-1.0%	0.5%[46.1 µM]	-0.1%
Cc1cc(C(=O)Nc2ccccc2)c(C)o1	14.4%	15.6%	6.9%	4.3%	u	-114.7%	0.3%	-13.4%
Nc1nonc1C(=O)NCCNS(=O)(=O)c1ccc(F)cc1	24.2%	u	11.0%	2.1%	12.9%	2.5%	0.7%	-8.1%
COc1ccc(NC(=O)CSc2nc3c([nH]c4ccccc43)c(=O)n2C)cc1	-8.4%&-3.4%	x	21.4%	-0.6%	11.9%	5.8%	14.6%[46.1 µM]	-0.9%
C#CC[N+](C)(C)CCCCCCCC	-21.6%	-9.4%	-3.8%	-0.9%	1.1%	3.8%	2.8%	1.5%
Next part
SMILES	2A StopGo	MARV entry inh	Cruzain noTriton	Cruzain Triton	RE007 growth inh	NS1 inh	Lassa entry inh	SARS PLP yeast
COc1ccc(C(=O)N2c3ccccc3CC2C)cc1OC (configuration not stated)	-18.1%	-7.9%	3.6%	2.7%	-2.0%	-15.0%	-2.4%	x
Cc1sc(NC(=O)CSc2ncn(-c3ccccc3)n2)nc1-c1ccccc1	u	u	14.4%	-5.5%	14.0%	12.8%	-0.9%	2.4%
O=C(O)c1cnc2ccccc2n1	5.9%	-34.5%	-3.2%	0.2%	-3.0%	-36.0%	-15.1%	1.2%
COc1cccc(NS(=O)(=O)NC(=O)c2cn(C)c3ccccc23)c1	12.7%	x	x	x	3.7%	-5.2%	x	-5.6%
O=C(Nc1ccnn1C1CCN(C(=O)c2ccc(F)c(Cl)c2)CC1)C1CC1	-0.7%	u	x	x	2.6%	-3.2%	4.0%	0.4%
CCc1cc(C(=O)NN2C(=O)NC3(CCCCC3)C2=O)sc1C	9.2%	u	x	x	10.4%	x	-0.6%	1.7%
Cc1noc(C)c1S(=O)(=O)N1CCN(c2ccccc2Cl)CC1	-22.7%	-3.1%	x	x	1.8%	x	-0.1%	-0.1%
Cc1c(C(=O)OCC(=O)Nc2ccccc2OC(F)F)cccc1[N+](=O)[O-]	0.5%	-9.5%	1.1%	-4.9%	2.7%	-7.7%	-8.8%	4.5%
Cc1ccc(NC(=S)Nc2cccc3ccccc23)cc1F	17.5%	x	x	x	-3.8%	-4.6%	x	2.8%

Screening data (PubChem)
